# Compound activity: PubChem BioAssay, National Center for Advancing Translational Sciences (NCATS)
# gsp ag – qHTS for Agonist of gsp, the Etiologic Mutation Responsible for Fibrous Dysplasia/McCune-Albright Syndrome: qHTS. gsp mutant cells, cAMP HTRF, 30 min; control for the full effect not named in the record. Potency, µM (titrated, usually from 76.9 µM), for the others: at the highest dose activation (cAMP increase), usual class: activators. hit rate 0.13% among 340,000. AID 624287, 2012; active = well fitted activation curve with a large enough effect; inconclusive = small, poorly fitted or top-dose-only effect, or another doubt; inactive = no such curve, though single readings can be large or run the other way; cell line not stated here;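 note: phosphodiesterase inhibitor Ro 20-1724 added with compounds to block cAMP breakdown; potency is the fitted concentration of half-maximal effect; nearly all actives have a fitted effect of over 60% in size; about a fifth of the inactives were tested at one dose only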
#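 Cells in DMEM/10% FBS with G418 were pretreated with compounds in DMSO plus […] (300 uM stock) for 30 min at 37C. cAMP was measured by HTRF (cAMP-d2 plus anti-cAMP antibody-K) after 30 min at room temperature.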
# TRPV1 PAM – HTS Assay for Compounds that Act as Potentiators of the Vanilloid Receptor 1; Transient receptor potential cation channel subfamily V member 1 (Homo sapiens), Q8NER1; TRPV1-expressing cells, Fluo-8 calcium influx, capsaicin EC20 potentiation; host cell line not named in the record; control for the full effect not named in the record; potentiation, % at 8.33 µM; hit rate 0.02% among 320,000; active means potentiation above 80%; inconclusive means 30% to 80%; inactive means below 30%; note: 0% is about no effect
# Target sequence (Q8NER1 whole entry, looked up): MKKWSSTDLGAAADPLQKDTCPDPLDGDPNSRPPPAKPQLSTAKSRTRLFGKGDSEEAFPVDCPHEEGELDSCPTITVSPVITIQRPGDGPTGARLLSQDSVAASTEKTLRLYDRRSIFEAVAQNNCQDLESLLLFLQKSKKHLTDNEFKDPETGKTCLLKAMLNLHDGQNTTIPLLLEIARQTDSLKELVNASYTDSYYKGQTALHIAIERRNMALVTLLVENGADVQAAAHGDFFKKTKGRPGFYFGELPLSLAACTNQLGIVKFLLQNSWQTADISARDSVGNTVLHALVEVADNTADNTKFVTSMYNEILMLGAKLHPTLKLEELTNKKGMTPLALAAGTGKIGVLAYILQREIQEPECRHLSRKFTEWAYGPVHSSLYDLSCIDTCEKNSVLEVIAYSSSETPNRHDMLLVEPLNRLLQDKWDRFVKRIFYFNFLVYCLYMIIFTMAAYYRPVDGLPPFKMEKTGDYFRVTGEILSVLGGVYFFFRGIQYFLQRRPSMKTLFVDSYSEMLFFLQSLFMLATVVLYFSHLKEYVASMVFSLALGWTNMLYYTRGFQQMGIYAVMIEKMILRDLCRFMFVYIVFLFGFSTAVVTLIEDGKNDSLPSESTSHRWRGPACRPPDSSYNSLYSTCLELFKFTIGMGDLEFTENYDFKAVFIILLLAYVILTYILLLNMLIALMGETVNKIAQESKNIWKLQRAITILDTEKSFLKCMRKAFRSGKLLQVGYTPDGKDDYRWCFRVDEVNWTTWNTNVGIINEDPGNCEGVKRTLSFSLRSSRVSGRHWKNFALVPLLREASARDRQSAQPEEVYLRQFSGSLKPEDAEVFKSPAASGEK
#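 Fluo-8 calcium influx in TRPV1-expressing cells, kinetic read (ex 480/em 520 nm). Compound added and read 3 min for agonist activity, followed by capsaicin at EC20 final and 2 min further read for enhancement.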
# ClpP mod – qHTS Assay for Activators of ClpP; ATP-dependent Clp protease proteolytic subunit (Bacillus subtilis (strain 168)), P80244; purified B. subtilis ClpP, FRET peptide cleavage, 20 min; Potency, µM (top dose mostly 57.5 µM), inactives show at the top dose activity change, negative = active; hit rate 1.9% among 340,000; active = well fitted falling curve with a large enough effect; inconclusive = small, poorly fitted or top-dose-only effect; inactive = no such curve, though single readings can be large or run the other way; note: potency is the fitted concentration of half-maximal effect; the source files actives as falling curves though it sought activators and does not explain the sign; nearly all actives have a fitted effect of over 65% in size; many hits overshoot -100%
# Target sequence (P80244 whole entry, looked up): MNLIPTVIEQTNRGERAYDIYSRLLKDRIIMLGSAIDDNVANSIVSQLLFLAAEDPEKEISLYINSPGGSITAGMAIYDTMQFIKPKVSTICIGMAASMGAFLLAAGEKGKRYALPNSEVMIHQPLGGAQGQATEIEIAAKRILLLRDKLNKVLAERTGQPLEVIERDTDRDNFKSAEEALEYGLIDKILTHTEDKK
#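 Buffer: 100 mM Tris/HCl pH8, 100 mM KCl, 0.05% low protease BSA, 2.5% glycerol, 0.01% Tween-20. ClpP 10 microg/mL final; 20 min RT; delta FRET normalized to ADEP and DMSO controls.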
# Sfp inh – qHTS Assay for Inhibitors of Bacillus subtilis Sfp phosphopantetheinyl transferase (PPTase); 4'-phosphopantetheinyl transferase ffp (Bacillus subtilis), Q9F4F7; Biochemical Sfp PPTase activity, qHTS; Potency, µM, for inactives: max response, negative = inhibition, hits mostly inhibitors; hit rate 3.5% among 310,000; AID 1490, 2009; active = well fitted inhibition curve with a large enough effect; inconclusive = small, poorly fitted or top-dose-only effect, or another doubt; inactive = no such curve, though single readings can be large or run the other way;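 note: the enzyme is Sfp with the accession as filed and its product quenches rhodamine fluorescence; potency is the fitted concentration of half-maximal effect; 0% = enzyme reaction without inhibitor and -100% = no enzyme wells; top concentration of the series not given in the record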
#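 Sfp 15 nM + cpd, 15 min RT; start w/ rhodamine-CoA 5 uM, BHQ-2-YbbR 12.5 uM (final); 50 mM Hepes pH 7.6, 10 mM MgCl2, 0.01% NP-40, 0.01% BSA; read 525/598 nm at 0 and 30 min.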
# gsp antag – qHTS for Antagonists of gsp, the Etiologic Mutation Responsible for Fibrous Dysplasia/McCune-Albright Syndrome: qHTS; gsp-mutant cells, cAMP HTRF, 30 min; control for the full effect not named in the record; hit rate 0.4% among 340,000; Potency, µM (titrated, usually from 76.9 µM), without a hit: top-dose activity change, negative = inhibition, most hits filed as inhibitors; active = falling curve of any shape with a large fitted effect; inconclusive = falling curve, mostly with a smaller effect; inactive = flat or rising curve; cell line not stated here;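 note: intracellular cAMP measured with PDE inhibitor Ro 20-1724 present during compound exposure; potency is the fitted concentration of half-maximal effect; % is set by controls: 0 for no effect and ±100 for the full control effect; nearly all actives have a fitted effect of over 65% in size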
#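 Cells in G418 medium, seeded 16-24 h, 37C; buffer exchange to DPBS + 1 mM CaCl2, 0.5 mM MgCl2, 0.05% BSA; cpds in DMSO + […] (300 uM stock), 30 min 37C; HTRF cAMP detection.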
# CtBP-E1A inh – qHTS Assay for Inhibitors of the CtBP/E1A Interaction; hit rate 0.49% among 340,000; activity change, % (test concentration not listed); AID 651724, 2012; AlphaScreen GST-E1A/His-CtBP binding, 1536-well; hits give low values; control for the full effect not named in the record; CtBP / adenovirus E1A interaction (AlphaScreen); in the data active means activity change below about -65%; inconclusive means about -30% to -65%; inactive means above about -30%; note: % is set by controls: 0 for no effect and ±100 for the full control effect; compound concentration not given in the record
#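 GST-E1A and His-tagged CtBP (125 nM each as 5X stock) were preincubated with pin-transferred compound for 2 h at 37 °C in the dark, then glutathione donor and nickel acceptor beads were added for 1 h before AlphaScreen reading.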
# Menin MLL FP FL – qHTS Assay for Inhibitors Targeting the Menin-MLL Interaction in MLL Related Leukemias: Competition With Fluorescein Labeled MLL-derived Peptide | AID 1766, 2009 | Fluorescence polarization, fluorescein-MLL peptide displacement from menin | FP activity change, % at 61.4 µM | 290,000 tested, under 10 active; inconclusive = falling polarisation curve, or a change in total fluorescence; inactive = total fluorescence flat and polarisation flat or rising; no compound was filed as active; the % refers to the polarisation; negative = inhibition;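 note: % of control where 0% means no effect; inhibitors lower the polarisation; unlabelled MLL peptide was the positive control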
# Active calls of the source: *; ? = inconclusive; nt = not tested or not shown; & = joins results of further samples; [ ] = dose if it differs, or a comment.
# Below each SMILES – gsp ag	TRPV1 PAM	ClpP mod	Sfp inh	gsp antag	CtBP-E1A inh	Menin MLL FP FL
Clc1c(-c2nnc3n2CCC3)sc2ccccc12
    9%	1	-5.0%	-3%	2%	-12	-7.7
Cc1ccc(C(=O)C2CCN(CC(=O)Nc3ccc4c(c3)OCCO4)CC2)cc1
    9%	7	0.8%	4%	-3%	-3	5.3
CCCCc1nnc(SCC(=O)Nc2nccs2)n1CC
    8%	1	0.2%	10%	6%	3	0.5
N[C@@]12CCc3nonc3[C@]1(O)CC(c1ccccc1)=[N+]2[O-]
    -3%	8	-0.6%	14%	3%	5	4.1
COc1ccc([C@H]2/C=C\CN(C(=O)CC(C)(C)C)[C@@H](C)C(=O)N2Cc2ccc(F)cc2)cc1
    nt	nt	1.4%	nt	-2%	-1	nt
CCOC(=O)/C(C#N)=C(C)/C=C1\Sc2ccccc2N1CC
    -2%[15.4 µM]	5	?	9%	-4%	-12	?
Cc1nc2ccccc2n1Cc1ccccc1Br
    -149%[inhibitor]	14	nt	2%	2%	2	-0.1
CNC(=O)COC(=O)CCC(=O)c1cccs1
    -22%	-4	-2.6%	24%	1%	-2	1.1
O=C(CCCN1C(=O)/C(=C\c2cccs2)SC1=S)Nc1cccc(C(=O)O)c1
    0%	?	nt	4%	-17%	-15	-0.5
COc1ccccc1N1CC(C(=O)NCCC2=CCCCC2)CC1=O (centres undefined)
    8%	3	-0.7%	nt	2%	nt	nt
COc1cccc(CNC(=O)c2cc3ccccn3n2)c1
    ?	-15	-9.0%	11%	8%	1	3.6
C=CCN(CC=C)CCOc1ccccc1[N+](=O)[O-]
    10%[15.4 µM]	0	nt	?	10%	1	-1.5
CCc1[nH]nc(C(=O)N2CCCC(Nc3cccc(F)c3)C2)c1C (centres undefined)
    5%	17	-2.6%	-4%	4%	-7	nt
CCOC(=O)C1CCN(C(=O)/C=C/c2ccc3c(c2)OCO3)CC1
    0%[15.4 µM]	-21	1.9%	6%	8%	8	-2.1
CCCC(CCC)=NNC(=O)CN(Cc1ccccc1)S(=O)(=O)c1ccccc1
    ?	8	1.9%	16%	19%	-3	1.3
CCN(CC)CCNC(=O)c1cn(CC)c2ccc(S(=O)(=O)N(C)C)cc2c1=O
    16%	-8	-0.3%	19%	1%	4	3.2
O=C(Nc1c2ccccc2nc2ccccc12)C(Cl)(Cl)Cl
    -1%	nt	?	-12%	-13%	7	2.9
CC1Cc2ccccc2N1C(=O)CSc1nnnn1C (centres undefined)
    27%	1	-1.9%	21%	4%	0	1.8
O=S(=O)(/C=C/c1ccccc1)N1CCc2ccccc2C1
    ?	-6	0.5%	13%	-16%	19	-3.7
CC(C(=O)NCc1ccco1)c1ccc([N+](=O)[O-])cc1 (centres undefined)
    -60%[inhibitor]	-1	-2.8%	5%	-7%	nt	-0.4
Cn1c(=O)cc(SCC(=O)NCc2cccnc2)c2ccccc21
    ?	1	?	14%	13%	-3	1.1
O=C(O)CCC(=O)N1CCc2cc(S(=O)(=O)NCCc3ccc(Cl)cc3)ccc21
    12%	13	-1.3%	18%	-9%	nt	nt
Cc1noc(C)c1S(=O)(=O)Nc1ccc2c(c1)C(=O)N([C@@H](C)CO)C[C@H](C)[C@@H](CN(C)Cc1ccc(C(F)(F)F)cc1)OCCCC[C@H](C)O2
    -25%	nt	-3.1%	nt	nt	-15	nt
CC(=O)NS(=O)(=O)c1ccc(N=NN2CCCCC2)cc1
    -13%	0	0.9%	6%	4%	5	2.9
COCCN(C(=O)COC(=O)/C=C/c1ccc2ccccc2n1)c1c(N)n(Cc2ccccc2)c(=O)[nH]c1=O
    -33%[inhibitor]	9	-1.5%	0%	-15%	0	11
Cc1noc(C)c1C(=O)OCC(=O)NCCc1ccc(Cl)cc1
    0%	7	-1.8%	-9%	-4%	-12	-1.7
Cc1cc2c(ncn2C(C)C)c(N)c1C
    -23%	7	1.7%	1%	-14%	0	5.9
Cc1cc(N2CCOCC2)nc(N2CCOCC2)n1
    -5%[15.4 µM]	5&-2	nt	16%&-2%	6%	3	0.7&-4.0
Cc1ccc(S(=O)(=O)N2CCCC2c2nc3ccccc3s2)cc1 (centres undefined)
    -42%[inhibitor]	nt	-2.7%	4%	-31%	-18	-1.4
Cc1ccc2c(c1)N(CC(=O)N1CCCCC1)C(=O)CO2
    7%	0	nt	-6%	0%	-3	nt
Cc1onc(C(=O)N2CCN(c3ccccc3)CC2)c1[N+](=O)[O-]
    -8%	9	-0.4%	7%	4%	nt	nt
Cc1ccc(CC(=O)Nc2ccc(C(=O)N3CCOCC3)cc2)cc1
    -8%[15.4 µM]	-4	1.1%	-8%	14%	-7	nt
Cc1cc(C(=O)N2CCCC(C(=O)c3cccc(C(F)(F)F)c3)C2)n[nH]1 (centres undefined)
    -11%	?	-3.7%	14%	-6%	-15	-4.6
CC(Oc1ccc(NC(=O)c2ccco2)cc1)C(=O)N1c2ccccc2CC1C (centres undefined)
    11%	29	-1.6%	4%	-30%	0	2.6
Cc1cccc(C)c1Nc1nc2ccccc2o1
    -111%	28	-0.8%	6%	-2%	0	0.2
O=C(COc1ccc(S(=O)(=O)NCCc2ccccc2)cc1)N1CCCC1
    16%	-19	-0.9%	7%	2%	10	2.7
CC(=O)Nc1ccc(S(=O)(=O)N2CCN(S(=O)(=O)c3ccccc3)CC2)cc1
    -32%	-4	-1.1%	20%	?	8	-0.1
C/C(=N\NC(=S)NCCc1ccccc1)c1ccc(C#N)cc1
    -48%[inhibitor]	-1	-3.3%	8%	-3%	2	5.7
O=C(c1nsc(Cl)c1Cl)N1CCCCC1
    22%	-8	-1.4%	11%	11%	5	0.8
COc1ccc(-c2ccc(OC)cc2)cc1
    -3%	8	-7.3%	-10%	0%	10	nt
CN(CCOc1ccccc1)C(=O)c1ccc(N2CCCC2)c([N+](=O)[O-])c1
    ?	-5	nt	-20%	-9%	-2	-7.0
COc1ccccc1NS(=O)(=O)c1ccc(/C=C/C(=O)O)cc1
    2%	-1	nt	16%	-24%	7	2.2
CCCCCCC1CC(=O)NC(=O)N1 (centres undefined)
    3%[15.4 µM]	nt	1.0%	25%	11%	3	1.0
O=C(c1n[nH]c2ccccc12)N1CCN(c2ccc(F)cc2)CC1
    6%[15.4 µM]	-19	1.2%	0%	2%	-1	-4.0
C[C@H](NC(=O)c1cc2cc(Cl)ccc2n1C)C(=O)N[C@@H](Cc1ccccc1)C(=O)O
    5%	8	3.6%	12%	5%	-3	-2.1
C=C1CCN([C@@H](Cc2ccccc2)C(=O)NCc2ccc(Cl)cc2)S(=O)(=O)c2ccccc21
    -2%	nt	-0.3%	nt	0%	2	nt
CC(C)Oc1ccc(C(=O)Nc2ccc(N3CCCC3)cc2)cc1
    -12%	-47	-2.3%	?	5%	0	3.4
Cc1nc(Sc2ccccc2)c(C#N)cc1-c1ccccc1
    23%	nt	-8.7%	-4%	-25%	12	2.9
O=S1(=O)c2ccccc2N=NN1Cc1cc(Cl)cc(Cl)c1
    nt	8	nt	?	nt	nt	-0.7
NC(=O)NNc1ncc(C(F)(F)F)cc1Cl
    9%[15.4 µM]	4	nt	50µM*	-1%	0	0.3
O=C(CSc1nc2c(c(=O)n1-c1ccc(F)cc1)SCC2)N1CCCC1
    13%	-13	-7.2%	18%	-1%	-6	-7.1
S=C1NC2(CCCCC2)N=C1c1ccccc1
    -2%[15.4 µM]	-2	?	5%	-2%	5	2.2
CC1CCCN(C(=O)C2CCN(C(=O)Nc3ccccc3)CC2)C1 (centres undefined)
    -19%	4	0.0%	nt	4%	2	nt
CC(C)(C)OC(=O)COc1cc(O)c2c(=O)cc(-c3ccccc3)oc2c1
    -41%	-6	-2.0%	6%	-4%	1	1.1
CCOc1ccc(N(CC(=O)NCCc2ccc(F)cc2)S(=O)(=O)c2ccccc2)cc1
    1%[15.4 µM]	-20	1.0%	?	-13%	6	0.1
COc1ccccc1CC(=O)Nc1ccc(C(=O)N2CCCCC2)cc1
    -12%	28	-17%	9%	8%	6	nt
COc1ccc(CC(=O)NNS(=O)(=O)c2ccc([N+](=O)[O-])cc2)cc1OC
    1%	-8	nt	-8%	7%	-4	-6.4
CC(=O)c1c(C)oc2ccc(N(C(C)=O)S(=O)(=O)c3ccc(F)cc3C)cc12
    ?	-1	-1.2%	-3%	2%	3	nt
O=C(c1ccc2c(c1)OCO2)N1CCN(S(=O)(=O)c2ccc(Cl)cc2)CC1
    3%[15.4 µM]	7	1.3%	18%	-21%	-1	-0.9
CC(OC(=O)c1ccc(NS(=O)(=O)c2cccs2)cc1)C(=O)N(C)C1CCCCC1 (centres undefined)
    -5%[15.4 µM]	-1	nt	11%	-20%	7	4.7

# Remaining list, next part:
# Below each SMILES – gsp ag	TRPV1 PAM	ClpP mod	Sfp inh	gsp antag	CtBP-E1A inh	Menin MLL FP FL
O=C(Nc1ccc(Br)cc1)Nc1cnccn1
    -11%	-7	-4.5%	15%	-6%	5	2.1
CCOC(=O)C1=C(COC(=O)CNC(=O)c2ccc(C)cc2)NC(=O)NC1C (centres undefined)
    -1%	?	-1.2%	9%	13%	-22	nt
CCCCNC(=O)c1cn(CC)c2cc(N3CCN(C)CC3)c(F)cc2c1=O
    -6%	8	4.0%	15%	6%	nt	3.0
Nc1cc(=O)[nH]c(SCC(=O)Nc2ccccc2-c2ccccc2)n1
    12%[15.4 µM]	-7	nt	10%	11%	-8	-2.3
Brc1ccc(-c2nnc3sc(CNC4CCCC4)cn23)cc1
    ?	2	-0.5%	11%	11%	2	4.2
O=C1CCCN2N=C(SCC(=O)Nc3ccccc3C(F)(F)F)SC2=N1
    -2%	27	-0.5%	-3%	1%	-6	4.1
